Compound activity: PubChem, Broad Institute
Ran FRET = RanGTP/importin-beta interaction disruptors – biochemical, CFP-Ran/YFP-importin-beta FRET, RCC1, cell-free, primary screen (AID 434961); CFP-Ran/YFP-importin-beta FRET, cell-free; active compounds read high; 0.2% of 7,700 active; inhibition, %;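 active means more than half of the replicate wells above 15% inhibition; inconclusive means exactly half above it; inactive means fewer than half above it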;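 further: 0% = DMSO wells and 100% inhibition = RanGDP control wells on each plate; stock of unstated strength diluted about 400-fold; mean of two wells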
* = called active by the depositor; ? = inconclusive. This is a subset. The share of hits here may be higher or lower than overall.

mol | Ran FRET
C[C@H](CO)N1C[C@H](C)[C@H](CN(C)C(=O)C2CCCCC2)OCCCC[C@H](C)Oc2ccc(N(C)C)cc2C1=O | 4.4
C[C@@H]1CCCCO[C@H](CN(C)C(=O)Cc2ccccc2)[C@@H](C)CN([C@@H](C)CO)C(=O)c2cc(NC(=O)c3ccncc3)ccc2O1 | -3.6
Cc1noc(C)c1S(=O)(=O)N(C)C[C@H]1OCCCC[C@@H](C)Oc2ccc(NS(C)(=O)=O)cc2C(=O)N([C@@H](C)CO)C[C@H]1C | -1.5
C[C@H]1CCCCO[C@H](CN(C)C)[C@@H](C)CN([C@@H](C)CO)C(=O)c2cc(NS(=O)(=O)c3cn(C)cn3)ccc2O1 | -3.8
C[C@H](CO)N1C[C@H](C)[C@H](CN(C)S(=O)(=O)c2cccs2)OCCCC[C@H](C)Oc2ccc(NC(=O)Cc3ccccc3)cc2C1=O | 4.2
CC(C)NC(=O)N(C)C[C@@H]1Oc2ccc(NC(=O)C3CC3)cc2CC(=O)N([C@H](C)CO)C[C@@H]1C | 4.0
CC(C)NC(=O)Nc1ccc2c(c1)C(=O)N([C@@H](C)CO)C[C@H](C)[C@@H](CN(C)S(=O)(=O)c1cccs1)OCCCC[C@@H](C)O2 | ?
Cc1noc(C)c1NC(=O)Nc1cccc2c1O[C@H](CN(C)C(=O)NC1CCCCC1)[C@H](C)CN([C@@H](C)CO)C2=O | 1.6
C[C@H](CO)N1C[C@H](C)[C@@H](CN(C)Cc2ccc(Cl)c(Cl)c2)Oc2c(NS(C)(=O)=O)cccc2C1=O | 3.6
Cc1noc(C)c1NC(=O)N(C)C[C@H]1Oc2ccc(NC(=O)Cn3cnnn3)cc2C(=O)N([C@@H](C)CO)C[C@H]1C | -1.9
C[C@H](CO)N1C[C@H](C)[C@H](CN(C)C(=O)Nc2ccc3c(c2)OCO3)Oc2ccc(NC(=O)Cc3ccccc3)cc2CC1=O | -1.5
C[C@@H]1CN([C@@H](C)CO)C(=O)c2cc(NC(=O)Nc3ccc(F)cc3)ccc2O[C@@H]1CN(C)C(=O)Nc1ccc(F)cc1 | -5.0

(listing goes on)
mol | Ran FRET
COc1ccc(S(=O)(=O)Nc2ccc3c(c2)C(=O)N([C@H](C)CO)C[C@@H](C)[C@H](CN(C)Cc2ccncc2)O3)cc1 | -0.1
C[C@H](CO)N1C[C@H](C)[C@@H](CN(C)C(=O)NC2CCCCC2)Oc2ccc(NS(=O)(=O)c3cccs3)cc2C1=O | 0.6
COc1ccc(S(=O)(=O)N(C)C[C@@H]2Oc3ncc(-c4cc5ccccc5o4)cc3C(=O)N([C@H](C)CO)C[C@@H]2C)cc1 | -0.7
Cc1noc(C)c1NC(=O)N(C)C[C@@H]1Oc2ncc(C#CC(C)(C)O)cc2C(=O)N([C@H](C)CO)C[C@@H]1C | -0.4
C[C@@H]1CN([C@@H](C)CO)C(=O)c2cccc(NS(=O)(=O)c3cn(C)cn3)c2O[C@@H]1CN(C)C | -1.7
COc1ccc(S(=O)(=O)Nc2ccc3c(c2)C(=O)N([C@H](C)CO)C[C@@H](C)[C@H](CN(C)Cc2ccc(C(F)(F)F)cc2)O3)cc1 | -0.9
C[C@@H]1CN([C@H](C)CO)C(=O)c2cccc(NS(C)(=O)=O)c2O[C@H]1CN(C)Cc1ccc(Oc2ccccc2)cc1 | 3.3
COc1ccc(CN(C)C[C@@H]2Oc3ccc(NC(=O)C4CC4)cc3C(=O)N([C@@H](C)CO)C[C@H]2C)cc1 | -0.5
CNC[C@H]1Oc2ccc(NC(=O)CCN3CCOCC3)cc2CC(=O)N([C@H](C)CO)C[C@H]1C | -1.1
CNC[C@@H]1Oc2ccc(N(C)C)cc2C(=O)N([C@@H](C)CO)C[C@H]1C | -0.1
COc1ccc(CN(C)C[C@H]2Oc3ccc(NC(=O)CCC(F)(F)F)cc3C(=O)N([C@H](C)CO)C[C@@H]2C)cc1 | -1.7
C[C@H]1CN([C@@H](C)CO)C(=O)CCCn2cc(nn2)CO[C@H]1CN(C)C(=O)c1ccc2ccn(C)c2c1 | 7.4

Arranged by length of the SMILES (descending): six of the compounds above
mol | Ran FRET
COc1ccc(S(=O)(=O)Nc2ccc3c(c2)C(=O)N([C@H](C)CO)C[C@@H](C)[C@H](CN(C)Cc2ccc(C(F)(F)F)cc2)O3)cc1 | -0.9
COc1ccc(S(=O)(=O)N(C)C[C@@H]2Oc3ncc(-c4cc5ccccc5o4)cc3C(=O)N([C@H](C)CO)C[C@@H]2C)cc1 | -0.7
COc1ccc(S(=O)(=O)Nc2ccc3c(c2)C(=O)N([C@H](C)CO)C[C@@H](C)[C@H](CN(C)Cc2ccncc2)O3)cc1 | -0.1
C[C@H]1CN([C@@H](C)CO)C(=O)CCCn2cc(nn2)CO[C@H]1CN(C)C(=O)c1ccc2ccn(C)c2c1 | 7.4
C[C@@H]1CN([C@@H](C)CO)C(=O)c2cccc(NS(=O)(=O)c3cn(C)cn3)c2O[C@@H]1CN(C)C | -1.7
CNC[C@H]1Oc2ccc(NC(=O)CCN3CCOCC3)cc2CC(=O)N([C@H](C)CO)C[C@H]1C | -1.1

Next results.
mol | Ran FRET
C[C@@H]1CN([C@@H](C)CO)C(=O)CCCn2nncc2CO[C@H]1CN(C)C | -2.3
C[C@@H]1CN([C@H](C)CO)C(=O)c2cccc(NC(=O)Nc3ccc4c(c3)OCO4)c2O[C@H]1CN(C)S(=O)(=O)c1ccccc1 | 1.8
C[C@H](CO)N1C[C@H](C)[C@@H](CN(C)C)Oc2ccc(NC(=O)CCN3CCOCC3)cc2CC1=O | -5.1
C[C@H](CO)N1C[C@H](C)[C@@H](CN(C)Cc2ccc(Cl)c(Cl)c2)Oc2c(cccc2N(C)C)C1=O | 1.3
C[C@@H]1CCCCO[C@@H](CN(C)C(=O)c2ccccc2)[C@H](C)CN([C@H](C)CO)C(=O)c2cc(NC(=O)Nc3ccc4c(c3)OCO4)ccc2O1 | -3.4
C[C@@H]1CN([C@H](C)CO)C(=O)c2cc(NC(=O)Nc3ccccc3)ccc2O[C@@H](C)CCCCO[C@@H]1CN(C)C | 5.7
C[C@H]1CN([C@@H](C)CO)C(=O)c2cc(NC(=O)CCCN(C)C)ccc2O[C@H]1CN(C)Cc1ccc(C(=O)O)cc1 | 3.9
C[C@H]1CN([C@@H](C)CO)C(=O)c2cc(NC(=O)CCCN(C)C)ccc2O[C@@H]1CN(C)C(=O)Nc1ccccc1 | 2.8
CC(C)NC(=O)N(C)C[C@H]1OCc2cn(nn2)CCCC(=O)N([C@@H](C)CO)C[C@H]1C | ?
CC(C)NC(=O)N(C)C[C@H]1OCCCC[C@H](C)Oc2ccc(NS(=O)(=O)c3ccccc3)cc2C(=O)N([C@H](C)CO)C[C@H]1C | 0.2
C[C@@H]1CCCCO[C@@H](CN(C)S(=O)(=O)c2ccccc2)[C@H](C)CN([C@@H](C)CO)C(=O)c2cc(NC(=O)Nc3ccccc3)ccc2O1 | 0.2
Cc1noc(C)c1NC(=O)N(C)C[C@@H]1Oc2ccc(NC(=O)Nc3cccc4ccccc34)cc2C(=O)N([C@@H](C)CO)C[C@@H]1C | -2.1

Carrying on.
mol | Ran FRET
Cc1noc(C)c1S(=O)(=O)Nc1ccc2c(c1)C(=O)N([C@@H](C)CO)C[C@H](C)[C@H](CN(C)C)O2 | 0.5
C[C@H](CO)N1C[C@H](C)[C@@H](CN(C)C(=O)c2ccc(N3CCN(C)CC3)cc2)OCc2cn(nn2)CCCC1=O | 8.1
Cc1noc(C)c1NC(=O)N(C)C[C@H]1Oc2ccc(NC(=O)C3CC3)cc2C(=O)N([C@@H](C)CO)C[C@@H]1C | -3.0
C[C@@H]1CN([C@H](C)CO)C(=O)Cc2cc(NC(=O)Nc3cccc4ccccc34)ccc2O[C@@H]1CN(C)C(=O)NC1CCCCC1 | -3.1
C[C@H]1CN([C@@H](C)CO)C(=O)Cc2cc(NC(=O)Cc3cn(C)c4ccccc34)ccc2O[C@H]1CN(C)S(=O)(=O)c1cn(C)cn1 | -1.0
C[C@H]1CN([C@@H](C)CO)C(=O)Cc2cc(NC(=O)Nc3cccc4ccccc34)ccc2O[C@H]1CN(C)C(=O)NC1CCCCC1 | 7.1
COc1ccc(CN(C)C[C@@H]2Oc3ccc(NC(=O)NC4CCCCC4)cc3C(=O)N([C@@H](C)CO)C[C@H]2C)cc1 | -1.0
C[C@@H]1CN([C@H](C)CO)C(=O)c2cc(NC(=O)c3ccncc3)ccc2O[C@@H]1CN(C)C(=O)Nc1ccc2c(c1)OCO2 | 3.7
Cc1noc(C)c1S(=O)(=O)Nc1cccc2c1O[C@@H](CN(C)Cc1ccc(C(F)(F)F)cc1)[C@@H](C)CN([C@@H](C)CO)C2=O | -1.5
C[C@@H]1CCCCO[C@H](CN(C)C(=O)Cc2ccccc2)[C@@H](C)CN([C@H](C)CO)C(=O)c2cc(NS(C)(=O)=O)ccc2O1 | -3.3
C[C@@H]1CN([C@H](C)CO)C(=O)c2cc(NC(=O)CCCN(C)C)ccc2O[C@H]1CN(C)Cc1ccc(C(=O)O)cc1 | 1.3
C[C@@H]1CN([C@@H](C)CO)C(=O)c2cc(NC(=O)CCCN(C)C)ccc2O[C@@H](C)CCCCO[C@@H]1CN(C)C(=O)Nc1ccccc1 | -7.5

Another view of part of the listing above:
C[C@H]1CN([C@@H](C)CO)C(=O)Cc2cc(NC(=O)Cc3cn(C)c4ccccc34)ccc2O[C@H]1CN(C)S(=O)(=O)c1cn(C)cn1
  Ran FRET: -1.0
C[C@H]1CN([C@@H](C)CO)C(=O)Cc2cc(NC(=O)Nc3cccc4ccccc34)ccc2O[C@H]1CN(C)C(=O)NC1CCCCC1
  Ran FRET: 7.1

Next section
mol | Ran FRET
C[C@@H]1CCCCO[C@@H](CN(C)C(=O)CCC(F)(F)F)[C@@H](C)CN([C@@H](C)CO)C(=O)c2cc(NS(=O)(=O)c3cn(C)cn3)ccc2O1 | 6.7
C[C@H](CO)N1C[C@H](C)[C@H](CN(C)C(=O)Nc2ccc(C(F)(F)F)cc2)Oc2c(NS(=O)(=O)c3ccc(Cl)cc3)cccc2C1=O | 2.0
C[C@@H]1CN([C@@H](C)CO)C(=O)Cc2cc(NS(=O)(=O)c3ccccc3)ccc2O[C@@H]1CN(C)S(=O)(=O)c1ccc(F)cc1 | 0.0
C[C@H]1CN([C@@H](C)CO)C(=O)CCCn2cc(nn2)CO[C@@H]1CN(C)S(=O)(=O)c1cn(C)cn1 | 4.1
C[C@@H]1CN([C@H](C)CO)C(=O)CCCn2cc(nn2)CO[C@@H]1CN(C)C | 1.1
C[C@H](CO)N1C[C@H](C)[C@H](CN(C)Cc2ccccc2)OCCCC[C@H](C)Oc2ccc(N(C)C)cc2C1=O | 2.4
C[C@H]1CCCCO[C@@H](CN(C)C(=O)C2CCCCC2)[C@@H](C)CN([C@@H](C)CO)C(=O)c2cc(NS(C)(=O)=O)ccc2O1 | -0.6
C[C@@H]1CCCCO[C@H](CN(C)C(=O)Nc2ccc3c(c2)OCO3)[C@@H](C)CN([C@@H](C)CO)C(=O)c2cc(NS(C)(=O)=O)ccc2O1 | -1.4
C[C@H]1CCCCO[C@H](CN(C)C(=O)c2ccncc2)[C@@H](C)CN([C@@H](C)CO)C(=O)c2cc(NS(C)(=O)=O)ccc2O1 | -4.1
COc1ccc(S(=O)(=O)Nc2ccc3c(c2)C(=O)N([C@H](C)CO)C[C@H](C)[C@@H](CN(C)S(=O)(=O)c2cn(C)cn2)O3)cc1 | -0.2
C[C@H]1CN([C@@H](C)CO)C(=O)c2cccc(NC(=O)c3cnccn3)c2O[C@@H]1CN(C)S(=O)(=O)c1cn(C)cn1 | -1.2
C[C@H](CO)N1C[C@H](C)[C@H](CN(C)Cc2ccc(-c3ccccc3)cc2)Oc2ccc(NC(=O)CCN3CCOCC3)cc2CC1=O | -4.9

(cont.)
mol | Ran FRET
C[C@@H]1CN([C@@H](C)CO)C(=O)c2cccc(NC(=O)Nc3cccc4ccccc34)c2O[C@H]1CN(C)S(=O)(=O)c1cn(C)cn1 | 1.1
C[C@@H]1CCCCO[C@H](CN(C)C(=O)Nc2ccccc2)[C@H](C)CN([C@H](C)CO)C(=O)c2cc(NC(=O)CCCN(C)C)ccc2O1 | 5.6
C[C@@H]1CN([C@H](C)CO)C(=O)c2cccc(NS(=O)(=O)c3cccs3)c2O[C@H]1CN(C)Cc1ccc(C(=O)O)cc1 | 0.2
C[C@@H]1CN([C@H](C)CO)C(=O)c2cccc(NS(=O)(=O)c3cccs3)c2O[C@@H]1CN(C)C(=O)Nc1cccc2ccccc12 | 0.9
CC(C)NC(=O)N(C)C[C@H]1OCCCC[C@H](C)Oc2ccc(NS(C)(=O)=O)cc2C(=O)N([C@H](C)CO)C[C@@H]1C | -0.5
CC(C)NC(=O)N(C)C[C@H]1Oc2ccc(NC(=O)CCN3CCOCC3)cc2CC(=O)N([C@H](C)CO)C[C@H]1C | 8.7
CC(C)NC(=O)N(C)C[C@H]1OCCCC[C@H](C)Oc2ccc(NC(=O)Nc3ccc(C(F)(F)F)cc3)cc2C(=O)N([C@@H](C)CO)C[C@H]1C | 2.4
C[C@H]1CN([C@@H](C)CO)C(=O)c2cccc(NC(=O)Nc3cccc4ccccc34)c2O[C@@H]1CN(C)S(=O)(=O)c1cn(C)cn1 | -4.6
C[C@@H]1CN([C@H](C)CO)C(=O)c2cccc(NC(=O)Nc3ccc4c(c3)OCO4)c2O[C@H]1CN(C)C | -1.8
C[C@@H]1CN([C@H](C)CO)C(=O)c2cc(NS(=O)(=O)c3ccccc3)ccc2O[C@@H](C)CCCCO[C@@H]1CN(C)Cc1ccccc1 | 2.6
C[C@H](CO)N1C[C@H](C)[C@@H](CN(C)C)Oc2ccc(NS(=O)(=O)c3cccs3)cc2C1=O | -2.5
COc1ccc(S(=O)(=O)N(C)C[C@H]2Oc3ccc(NC(=O)Cc4cn(C)c5ccccc45)cc3C(=O)N([C@H](C)CO)C[C@@H]2C)cc1 | 0.3
C[C@@H]1CN([C@@H](C)CO)C(=O)c2cccc(NC(=O)c3cnccn3)c2O[C@H]1CN(C)C(=O)NC1CCCCC1 | 0.0
C[C@@H]1CN([C@@H](C)CO)C(=O)c2cccc(NC(=O)Nc3ccc(C(F)(F)F)cc3)c2O[C@@H]1CN(C)S(=O)(=O)c1cccs1 | -2.3
